# Compound activity as filed in PubChem.
# Hsc70 ATP site: Hsc70 inhibitors, probe displacement, primary screen, biochemical, fluorescence polarization (AID 568) | Hsc70 fluorescence polarization, probe displacement; higher % means a stronger effect; strong numbers were not always called active | displacement, % at 20 µM, or IC50 in µM where a hit was titrated | 83,000 tested, under 10 active;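 active = displacement above 50% without optical interference and an IC50 on retest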;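 note: ATPase domain with a fluorescein-tagged ATP probe; 0% = vehicle and 100% = excess ADP; read after one hour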
# MT1-MMP promoter: inhibitors of MT1-MMP promoter transcription, cell-based, luciferase reporter, luminescence (AID 618) | MT1-MMP promoter luciferase reporter cells, luminescence | actives 0.62% (n = 87,000) | calls from a first round at 10 µM; hits with a dose series show EC50 in µM;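 active = over half of the reporter light lost at 10 µM or EC50 under 50 µM; inactive = the rest and hits that failed the dose series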;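 note: actives suppress MT1-MMP promoter-driven transcription so potencies describe inhibitors; HT1080 fibrosarcoma cells; overnight exposure; toxic or luciferase-blocking compounds were not removed from the actives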
# WNV protease inh: WNV NS2B-NS3 proteinase inhibition; P06935; WNV NS2B-NS3 protease, fluorogenic substrate Ex360/Em465; active compounds read low; z-score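 (tested at a level between 10 and 100 µM)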; actives 0.18% (n = 65,000);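 active = z-score at -3 or under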;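 note: score is relative to mean and spread of the compound wells of a plate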
# Target sequence (P06935 1371-1501 limits assumed): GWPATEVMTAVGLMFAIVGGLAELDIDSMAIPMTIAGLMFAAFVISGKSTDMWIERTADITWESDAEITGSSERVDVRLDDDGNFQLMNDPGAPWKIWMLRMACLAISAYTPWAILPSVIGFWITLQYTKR
# Target sequence (P06935 1502-1679 limits assumed): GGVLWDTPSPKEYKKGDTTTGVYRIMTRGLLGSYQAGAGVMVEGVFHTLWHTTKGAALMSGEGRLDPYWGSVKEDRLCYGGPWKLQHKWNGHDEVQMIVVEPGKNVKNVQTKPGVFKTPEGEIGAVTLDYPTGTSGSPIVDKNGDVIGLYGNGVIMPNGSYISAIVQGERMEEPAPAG
# Starred values were filed as active, the others as inactive; i = inactive; / = no result given.
# Second line of a record: Hsc70 ATP site	MT1-MMP promoter	WNV protease inh
COc1ccc(C2=CC(c3ccc(C)cc3)n3nnnc3N2)cc1 (stereo not given)
 : 5.6%	i	1.4
Cc1cccc(NC(=O)C2C(C(=O)O)C3C=CC2C32CC2)c1C (stereo not given)
 : 8.2%	i	-0.14
COc1ccccc1N(O)C1CC(=O)N(c2ccc(Br)cc2)C1=O (stereo not given)
 : -0.5%	i	-0.7
CCCCc1ccc(NS(=O)(=O)N(C)C)cc1
 : 0.0%	i	-1.6
O=C1CN(C(=O)COC(=O)c2ccccc2NC(=O)c2ccco2)c2ccccc2N1
 : 0.9%	i	0.81
COc1ccc(Cl)cc1C(=O)NCC#N
 : 2.7%	i	/
O=c1cc(CO)oc(CN2CCN(c3cccc(C(F)(F)F)c3)CC2)c1O
 : 4.3%	i	/
COC(=O)NCc1ccc2c(c1)OCO2
 : 5.5%	i	/
COc1ccc(OCCNS(=O)(=O)c2ccccc2)cc1
 : -0.7%	i	1.2
O=S(=O)(c1cccc(Cl)c1)N1CCCC1
 : -3.0%	i	1.7
O=C(CSc1ccc(-c2ccc(F)cc2)nn1)NCc1ccco1
 : 1.3%	i	/
C=CCc1cccc(C2Nc3ccccc3C(=O)N2O)c1O (stereo not given)
 : 0.0%	i	-2
CCOC(=O)c1c(NC(=O)CN2CCCCC2)sc2c1CCCC2O (stereo not given)
 : -4.1%	i	-0.94
CSc1nc2c(c(C(F)(F)F)n1)CC(C)CC2 (stereo not given)
 : 1.7%	i	/
Cc1ccc(C(C)C)c(OCCCN2CC(C)OC(C)C2)c1 (stereo not given)
 : 0.1%	i	-0.8
COc1ccc(CCNC(=O)CCC(=O)N2CCN(S(=O)(=O)c3ccccc3)CC2)cc1OC
 : 0.8%	i	0.73
O=C(Nc1cc(C(F)(F)F)ccc1N1CCOCC1)c1ccccc1F
 : 2.7%	i	/
CC(CNC(=O)c1ccc(-c2ccccc2)cc1)CN(C)C (stereo not given)
 : -1.8%	i	/
Cc1ccc2nc(-c3cc(N)cc(N)c3)oc2c1
 : -0.2%	1.6µM*	/
Cc1ccc2nc(N3CCN(C=O)CC3)nc(-c3ccccc3)c2c1
 : 2.0%	i	/
O=c1cc(N2CCc3ccccc32)[nH]c(=O)n1Cc1ccc(F)cc1
 : 6.0%	i	1.6
CCN1CCN(c2cc(C(C)(C)C)nc3c(-c4ccccc4)c(C)nn23)CC1
 : -0.7%	i	/
CCC(=O)Nc1cc(C)c(NC(=O)c2ccco2)cn1
 : 3.5%	i	-0.59
COC(=O)Cc1c(C)c2ccc(OCc3nn[nH]n3)cc2oc1=O
 : -23%	i	/
Cc1ccc(-n2c(=O)cc(N3CCN(C(=O)c4ccco4)CC3)[nH]c2=O)cc1
 : 6.2%	i	-0.78
COc1ccc(S(=O)(=O)Nc2cc(C)cc(C)n2)c2ccccc12
 : 3.0%	i	0.86
CC(Cc1ccccc1)NC(=O)C1CCCNC1=O (stereo not given)
 : 0.4%	i	/
COC(=O)c1ccc(CN2C(=O)NC3(CCCc4ccccc43)C2=O)o1 (stereo not given)
 : 5.8%	i	0.49
CNC(=O)CCCCCNS(=O)(=O)c1ccc(C)cc1
 : -1.3%	i	/
Cc1ccccc1NC(=O)C1C2CCC(O2)C1C(=O)O (stereo not given)
 : -2.6%	i	/

# (continued)
# Second line of a record: Hsc70 ATP site	MT1-MMP promoter	WNV protease inh
N#CC1=C(N)OC2=C(C(=O)CCC2)C1C1CC=CCC1 (stereo not given)
 : 0.9%	i	0.47
CCCn1nnc(NC(=O)COc2ccc(C3CCCCC3)cc2)n1
 : 3.9%	i	-0.66
O=C(NC1CCCC1)c1ccc(Br)o1
 : -5.4%	i	/
N=c1c2c3c(sc2nc2n1CCCCC2)CCCCC3
 : 9.0%	i	-0.73
CCN(CC)c1ccc2cc(-c3nc4ccccc4[nH]3)c(=O)oc2c1
 : 54%	1.1µM*	1.4
Cc1nc2ncnn2c(C)c1CCC(=O)N1CCN(C(=O)c2ccco2)CC1
 : -0.5%	i	0.8
O=C(CCCOc1ccccc1)Nc1ccc(S(=O)(=O)N2CCOCC2)cc1
 : -7.8%	i	-0.01
CCOc1ccc(CCNC(=O)COC(=O)c2cccnc2OCC)cc1OCC
 : -1.4%	i	/
COc1ccc(Cl)cc1N1Cc2ccccc2C1
 : 5.6%	i	/
COc1cccc(-c2cc(C(=O)Nc3cc(C)n(Cc4ccc(Cl)cc4)n3)no2)c1
 : -4.6%	i	-0.54
Cc1ccc(-c2csc3ncn(-n4c(C)ccc4C)c(=O)c23)o1
 : -1.1%	i	0.36
O=C1CC(N2CCN(Cc3ccccc3)CC2)C(=O)N1c1ccccc1 (stereo not given)
 : -4.7%	i	1.2
CSc1nnc(-c2ccccc2)n1N
 : -1.2%	i	-0.74
Cc1cccc2cc(C#N)c(N3CCCC3)nc12
 : 3.1%	i	-0.39
CCn1c(SC)nnc1-c1nnc(SC)n1CC
 : 4.9%	i	-1.3
Cc1sc2c(=O)n3c(nc2c1C(=O)NCCCN1CCOCC1)CCCCC3
 : -0.1%	i	0.08
CCCCn1c(SCC(=O)Nc2cccc(C)n2)nnc1-c1ccco1
 : -2.3%	i	-0.99
COc1cc(NC(=O)CN2C(=O)NC(C)(CCC(C)C)C2=O)cc(OC)c1 (stereo not given)
 : 2.8%	i	0.47
CC1(C)CC(=O)C=C(Nc2ccc3c(c2)OCCO3)C1
 : 6.0%	i	1.1
Cc1cc2nc3c(nc2cc1C)C1(C(=O)N(C)C)CCC3(C)C1(C)C (stereo not given)
 : 5.3%	i	/
Cc1cccc(N=C2NN=C(c3ccc4c(c3)OCCO4)CS2)c1
 : -4.2%	i	/
Cc1cc(OCC(=O)Nc2ccc(N3CCCC3)cc2)cc(C)c1Cl
 : -16%	i	/
CCCCn1c(SCC(=O)NCc2ccco2)nc2cc(S(N)(=O)=O)ccc21
 : -2.2%	i	/
COc1ccc(NCc2nnc(SCC(=O)NCc3ccco3)n2-c2ccccc2OC)cc1
 : 1.3%	i	/
O=S(=O)(NCCc1csc(-c2cccnc2)n1)c1cccs1
 : 1.6%	i	0.22
Cc1ccc2[nH]c3c(c2c1)CN(C)CC3
 : 3.4%	i	/
CCS(=O)(=O)N1CCCC(C(=O)NCc2ccc(C)cc2)C1 (stereo not given)
 : 8.8%	i	-0.33
Cc1nnc(NC(=O)C2COc3ccccc3O2)s1 (stereo not given)
 : -4.1%	i	0.15
O=C1CC(N2CCSCC2)C(=O)N1CCc1ccccc1 (stereo not given)
 : 4.6%	i	0.14
C=C(C)CSc1nc(N)c2c(C)c(C)sc2n1
 : -4.9%	i	0.39

# (further entries)
# Second line of a record: Hsc70 ATP site	MT1-MMP promoter	WNV protease inh
CCCCCNC(=O)CCCCn1c(=O)[nH]c2cc(OCC)c(OCC)cc2c1=O
 : -6.4%	i	-0.73
COc1ccc(Cl)cc1Nc1nc(C)cc(C)c1C(N)=O
 : -0.5%	i	/
O=C(CCC1COc2ccccc2O1)Nc1cccnc1 (stereo not given)
 : 2.8%	i	-0.54
O=C(CCn1cccc1)NCc1ccccc1
 : 2.1%	i	0.16
CCCN(CCC)CCCNC(=O)c1cn(CCOC)c(=O)c2c1c1ccccc1n2C
 : -5.4%	i	-0.31
O=C1c2cc(S(=O)(=O)NCCCO)ccc2-c2ccc(S(=O)(=O)NCCCO)cc21
 : -3.3%	i	/
Cc1cc(C)cc(N(CC(=O)Nc2cccc(C)n2)S(=O)(=O)c2c(C)noc2C)c1
 : 2.4%	i	0.48
COCCN(C(C)=O)c1nnc(-c2cnccn2)s1
 : -1.7%	i	-0.17
CN1CCN(CCCNC(=O)c2cn(C)c3ccc(S(=O)(=O)N(C)C)cc3c2=O)CC1
 : 4.7%	i	-1.6
CCOc1ccccc1CNCCN1CCOCC1
 : -0.3%	i	/
Cc1ccccc1NS(=O)(=O)c1ccc(NC(=O)c2ccco2)cc1
 : 3.9%	i	-0.25
CC(C)(C)Cc1nc(-c2ccc(Cl)cc2)no1
 : 0.6%	i	/
COC(=O)C(CCSC)NC(=O)Cn1ncc2c(=O)oc3ccc(C)cc3c21 (stereo not given)
 : -0.9%	i	2
Nc1nc(-n2cnnc2)nn1-c1ccccc1
 : -4.5%	i	0.01
O=C(Nc1ccc(-c2nc3ccccc3o2)cc1)c1cccnc1
 : 2.6%	i	/
CCOC(=O)C1=C(C)N=C2SC(C)C(=O)N2C1c1cccc(F)c1 (stereo not given)
 : 1.8%	i	-0.18
O=C(c1nn(Cc2ccccc2)c(=O)c2ccccc12)N1CCN(C/C=C/c2ccccc2)CC1
 : 5.1%	i	/
COc1ccc(-c2nn(-c3ccccc3)cc2C(=O)O)cc1OC
 : 0.0%	i	/
CCCOc1ccc(C2C(C(=O)c3ccco3)=C(O)C(=O)N2CCCn2ccnc2)cc1 (stereo not given)
 : -2.5%	i	0.01
COC(=O)Nc1ccc(S(=O)(=O)N(C)C)cc1
 : -5.3%	i	-0.8
Cc1ccc(Oc2ccc(S(=O)(=O)N3CCOCC3)cc2C(N)=O)c(-n2nc3ccccc3n2)c1
 : -1.1%	i	-0.65
COc1ccc(Cl)cc1NC(=O)CC(C)=O
 : 0.2%	i	0.24
CC(C)c1ccccc1OCCCCCNCCO
 : -1.4%	i	1.1
CCc1ccccc1OCc1nnc(N)s1
 : 1.0%	i	-0.29
COc1ccccc1-n1c(SCC(=O)N(C)C2CCS(=O)(=O)C2)nc2ccccc2c1=O (stereo not given)
 : -5.0%	i	2.3
Cc1ccc(CC(=O)NCC(C)C)cc1
 : 3.1%	i	-0.19
COCCNC(=O)CN(C(=O)Cn1nnc2ccccc21)c1ccc(C)c(F)c1
 : 0.6%	i	/
CCCn1nnc(NC(=O)c2sc3ccccc3c2Cl)n1
 : -8.1%	i	1.8
CCC1(C(=O)OC)NC(c2cccc(F)c2)C2C(=O)N(C)C(=O)C21 (stereo not given)
 : 3.7%	i	0.62
CCOC(=O)c1c(C)oc2c1c(C=NC1CCS(=O)(=O)C1)c(O)c1ccccc12 (stereo not given)
 : 22%	i	0.67

# Structural class: the entries above with a CF3 group (three)
# Second line of a record: Hsc70 ATP site	MT1-MMP promoter	WNV protease inh
O=c1cc(CO)oc(CN2CCN(c3cccc(C(F)(F)F)c3)CC2)c1O
 : 4.3%	i	/
CSc1nc2c(c(C(F)(F)F)n1)CC(C)CC2 (stereo not given)
 : 1.7%	i	/
O=C(Nc1cc(C(F)(F)F)ccc1N1CCOCC1)c1ccccc1F
 : 2.7%	i	/

# An excerpt from above in order of length of the SMILES, falling.
# Second line of a record: Hsc70 ATP site	MT1-MMP promoter	WNV protease inh
CN1CCN(CCCNC(=O)c2cn(C)c3ccc(S(=O)(=O)N(C)C)cc3c2=O)CC1
 : 4.7%	i	-1.6
COCCNC(=O)CN(C(=O)Cn1nnc2ccccc21)c1ccc(C)c(F)c1
 : 0.6%	i	/
Cc1ccccc1NS(=O)(=O)c1ccc(NC(=O)c2ccco2)cc1
 : 3.9%	i	-0.25

# Next section
# Second line of a record: Hsc70 ATP site	MT1-MMP promoter	WNV protease inh
O=C(C1CCN(c2ccc(N3CCOCC3)nn2)CC1)N1CCN(c2ccc(F)cc2)CC1
 : -1.6%	i	0.09
COc1cccc(-c2nnn(CC(=O)Nc3cc(OC)c(NC(=O)c4ccco4)cc3OC)n2)c1
 : -1.5%	i	/
Cc1cccc(NC(=O)CCCCCN2C(=O)c3ccccc3C2=O)n1
 : -7.9%	i	-0.76
COC(=O)c1ccc(NC(=O)C2C3C=CC(O3)C2C(=O)O)cc1 (stereo not given)
 : 0.5%	i	-0.46
Cc1cc(N2C(=O)CCC2=O)n(-c2ccccc2)n1
 : -4.3%	i	-1.9
Nc1nc(NC(=O)c2cccs2)nn1-c1ccccc1
 : 6.3%	i	0.19
CN(C)S(=O)(=O)N1CCN(S(=O)(=O)c2ccccc2)CC1
 : -3.7%	i	0.56
Cc1nc(-c2ccccc2)nc2[nH]c(-c3ccccc3)cc(=O)c12
 : -0.4%	i	/
O=C(COn1nnc2ccccc21)NCC1CCCCC1
 : 0.9%	i	0.73
O=C(CN1C(=O)C2C3C=CC(C3)C2C1=O)Nc1ccc2nccnc2c1 (stereo not given)
 : -0.5%	i	-0.38
O=[N+]([O-])c1ccc(Sc2n[nH]c(-c3ccccc3)n2)nc1
 : -3.1%	i	/
COc1ccc(-c2cc3ccc(OCc4nn[nH]n4)cc3oc2=O)cc1
 : -0.1%	i	4.9
CCOC(=O)C1CCN(C(=O)c2cc3cc4cc(OC)ccc4nc3o2)CC1
 : 8.9%	i	-0.42
COc1nn(CC(=O)N2N=C(C)CC2(O)C(F)(F)F)cc1[N+](=O)[O-] (stereo not given)
 : -0.7%	i	/
O=C(NCCN1CCCC1)C1CC(=O)N(C2CCCCC2)C1 (stereo not given)
 : 7.2%	i	-0.1
CCCc1nnc(SCC(=O)N2CCCC(C)C2)n1CCCOC (stereo not given)
 : -6.1%	i	0.92
CCOC(=O)N1CCN(C(=O)c2ccc(Cl)c(S(=O)(=O)Nc3ccccc3)c2)CC1
 : -5.6%	i	-0.3
Cc1sc2nc(CN(C(=O)NC3CCCCC3)C3CCCC3)[nH]c(=O)c2c1C
 : -1.8%	i	/
COc1ccc(CC(=O)Nc2cc(C)ccn2)cc1
 : 9.1%	i	0.15
CCC(=O)N1N=C(c2ccc(NS(C)(=O)=O)cc2)CC1c1ccc(C)cc1 (stereo not given)
 : -0.7%	i	/
CCS(=O)(=O)N1CCC(C(=O)NCCc2ccccc2)CC1
 : -5.0%	i	-0.75
CC1(C)CC(=O)C2=C(C1)Oc1ncn3nc(-c4cccnc4)nc3c1C2c1ccccc1 (stereo not given)
 : -1.6%	i	0.98
